D2 agonist: Beta-Arrestin HTS for Positive Allosteric Modulators of the Human D2 Dopamine Receptor: Agonists | AID 624465, 2012 | activation, % (test concentration not listed) | DiscoveRx PathHunter D2 beta-arrestin, luminescence, 90 min; 100% = 57 uM dopamine signal | 0.084% of 360,000 active; in the data active = activation above about 40%; inconclusive = about 15% to 40%; inactive = below about 15%; further: compound concentration not given in the record; the text of the record calls up to 30% inactive
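Agonist mode: compounds alone added to overnight-plated D2 PathHunter cells for 90 min at 37 C, with 57 uM final dopamine (EC100) defining full response. Beta-arrestin recruitment detected by chemiluminescent reagent, read after 1 h at ambient temperature.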
Six1-Eya2 blk: qHTS Assay for Inhibitors of the Six1/Eya2 Interaction; Homeobox protein SIX1 (Homo sapiens) + Protein phosphatase EYA2 (Homo sapiens), …; AlphaScreen GST-Six1/His-Eya2 binding, biochemical; active compounds read low; control for the full effect not named in the record; activity change, % (no concentration beside the values); 0.56% of 360,000 active; AID 651725, 2012; in the data active = activity change below about -65%; inconclusive = about -30% to -65%; inactive = above about -30%; further: on the % scale 0 is the no-effect control and ±100 the full control effect
Target sequence (O00167 whole entry, looked up): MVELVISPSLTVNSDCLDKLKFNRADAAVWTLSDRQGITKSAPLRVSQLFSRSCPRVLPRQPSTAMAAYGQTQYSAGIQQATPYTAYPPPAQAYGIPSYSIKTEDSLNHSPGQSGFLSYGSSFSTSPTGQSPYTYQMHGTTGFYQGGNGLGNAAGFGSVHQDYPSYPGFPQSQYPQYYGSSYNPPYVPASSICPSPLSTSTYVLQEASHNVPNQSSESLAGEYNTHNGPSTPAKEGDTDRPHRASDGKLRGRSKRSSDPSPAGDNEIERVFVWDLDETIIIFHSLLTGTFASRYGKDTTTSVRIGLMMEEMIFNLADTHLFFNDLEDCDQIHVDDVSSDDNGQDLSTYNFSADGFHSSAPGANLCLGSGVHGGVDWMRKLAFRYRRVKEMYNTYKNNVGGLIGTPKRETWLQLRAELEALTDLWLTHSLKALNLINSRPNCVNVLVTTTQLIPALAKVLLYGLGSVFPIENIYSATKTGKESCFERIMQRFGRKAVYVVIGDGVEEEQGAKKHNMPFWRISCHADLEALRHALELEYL
Target sequence (Q15475 whole entry, looked up): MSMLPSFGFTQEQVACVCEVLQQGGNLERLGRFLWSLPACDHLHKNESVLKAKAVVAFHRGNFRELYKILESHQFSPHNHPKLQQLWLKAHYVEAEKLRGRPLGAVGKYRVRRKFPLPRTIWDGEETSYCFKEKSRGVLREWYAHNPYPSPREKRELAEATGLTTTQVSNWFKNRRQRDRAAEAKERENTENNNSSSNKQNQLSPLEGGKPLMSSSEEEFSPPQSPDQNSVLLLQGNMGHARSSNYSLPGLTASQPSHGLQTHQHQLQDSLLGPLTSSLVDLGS
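Six1/Eya2 binding was read as AlphaScreen signal after compounds were pinned into GST-Six1 plus His-tagged Eya2 (5X stock 250/500 nM) in pH 8.0 Tris/NaCl/TCEP buffer, beads added, then incubated 1 h, 37 C, dark.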
D2 PAM: Beta-Arrestin HTS for Positive Allosteric Modulators of the Human D2 Dopamine Receptor: Potentiators; potentiation, % (no concentration beside the values); DiscoveRx D2 beta-arrestin cells, luminescence, 90 min; 100% = 57 uM dopamine signal; 0.23% of 360,000 active; AID 624464, 2012; active = potentiation of 50% or more; inconclusive = 30% to 50%; inactive = 30% or less;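 further: compound concentration not given in the record; tested on top of an EC20 dose of dopamine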
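D2 cells co-treated with compound plus 50 nM dopamine (EC20) for 90 min at 37 deg C to detect potentiation. Beta-arrestin recruitment was read as enzyme-fragment luminescence after 1 h at ambient temperature. Full response was set by 57 uM dopamine.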
CtBP-E1A blk: qHTS Assay for Inhibitors of the CtBP/E1A Interaction; AlphaScreen GST-E1A/His-CtBP binding, 1536-well; active compounds read low; control for the full effect not named in the record; activity change, % (concentration not given with the values); 0.49% of 340,000 active; in the data active means activity change below about -65%; inconclusive means about -30% to -65%; inactive means above about -30%; further: on the % scale 0 is the no-effect control and ±100 the full control effect
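Protein mix (5X: 125 nM each GST-E1A, His-CtBP) was incubated with pinned compound 2 h at 37 deg C in dark, in 50 mM Tris pH 8.0 buffer with 300 mM NaCl. Glutathione donor and nickel acceptor beads followed; AlphaScreen signal read after 1 h.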
TRPV1 potentiator: HTS Assay for Compounds that Act as Potentiators of the Vanilloid Receptor 1; Transient receptor potential cation channel subfamily V member 1 (Homo sapiens), Q8NER1; TRPV1-expressing cells, Fluo-8 calcium influx, capsaicin EC20 potentiation; host cell line not named in the record; control for the full effect not named in the record; potentiation, % at 8.33 µM; 0.02% of 320,000 active; active means potentiation above 80%; inconclusive means 30% to 80%; inactive means below 30%; further: 0% is about no effect
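Cells expressing TRPV1 were dye-loaded with Fluo-8 and read kinetically: 10 s baseline, 3 min after compound (agonist portion), then 2 min after EC20 capsaicin (allosteric enhancer portion). Calcium-bound dye fluorescence at 480/520 nm.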
PINK1 expr mod: A Quantitative High throughput Screen to Identify Chemical Modulators of PINK1 Expression; Potency, µM (doses to about 76.6 µM), for inactives: at the highest dose activation (PINK1 increase), most hits filed as activators; PINK1 immunofluorescence, high-content cytometry, 24 h; 0.2% of 410,000 active; AID 624263, 2012; active = well fitted activation curve with a large enough effect; inconclusive = small, poorly fitted or top-dose-only effect; inactive = flat fitted curve, though single readings scatter; cell line not stated here;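 further: potency means the concentration at half of the fitted maximal effect; % of control where 0% means no effect; nearly all actives have a fitted effect of over 65% in size; a mitochondrial uncoupler was the plate control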
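PINK1 protein, normally rapidly degraded, was detected by immunofluorescence after 24 hour compound treatment of a stable cell line. Titration data (5 concentrations) came from laser-scanning cytometry, with CCCP-treated wells as controls.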
Sfp inh: qHTS Assay for Inhibitors of Bacillus subtilis Sfp phosphopantetheinyl transferase (PPTase) | 4'-phosphopantetheinyl transferase ffp (Bacillus subtilis), Q9F4F7 | Biochemical Sfp PPTase activity, qHTS | Potency, µM, inactives show max response, negative = inhibition, usual class: inhibitors | 3.5% of 310,000 active | AID 1490, 2009; active means well fitted inhibition curve with a large enough effect; inconclusive means small, poorly fitted or top-dose-only effect, or another doubt; inactive means no such curve, though single readings can be large or run the other way;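 further: the enzyme is Sfp with the accession as filed and its product quenches rhodamine fluorescence; potency means the concentration at half of the fitted maximal effect; 0% = enzyme reaction without inhibitor and -100% = no enzyme wells; top concentration of the series not given in the record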
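Fluorescence-quenching assay: 15 nM Sfp-PPTase preincubated 15 min at room temperature with compound, then 5 uM rhodamine-CoA and 12.5 uM BHQ-2-labelled YbbR peptide added. Fluorescence (ex 525/em 598 nm) read at start and after 30 min; difference gives rate.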
Active calls of the source: *; ? = inconclusive; . = no result given; & = joins results of further samples; [ ] = remark or other dose.

Start of the data: the first four entries, ahead of the listing:
SMILES	D2 agonist	Six1-Eya2 blk	D2 PAM	CtBP-E1A blk	TRPV1 potentiator	PINK1 expr mod	Sfp inh
CCOc1cc(/C=N/n2c(C)nc3sc(C)c(C)c3c2=O)ccc1O	1.0	5	-9	.	7	23%	2%
Cn1cc(CN(CCO)Cc2cccs2)c(-c2cccc(Cl)c2)n1	-3.1	-4	-15	-11	3	4.1%	16%
C=CCSc1nc(N)c(C(=O)Nc2ccccc2OC)cc1C(=O)Nc1ccccc1	-0.2	1	7	-4	4	1.2%	10%
COC(=O)c1cc(Br)c(=O)n(Cc2ccco2)c1	-4.1	0	-20	2	6	-1.8%	8%

The list itself, previewed entries included:
SMILES	D2 agonist	Six1-Eya2 blk	D2 PAM	CtBP-E1A blk	TRPV1 potentiator	PINK1 expr mod	Sfp inh
CCOc1cc(/C=N/n2c(C)nc3sc(C)c(C)c3c2=O)ccc1O	1.0	5	-9	.	7	23%	2%
Cn1cc(CN(CCO)Cc2cccs2)c(-c2cccc(Cl)c2)n1	-3.1	-4	-15	-11	3	4.1%	16%
C=CCSc1nc(N)c(C(=O)Nc2ccccc2OC)cc1C(=O)Nc1ccccc1	-0.2	1	7	-4	4	1.2%	10%
COC(=O)c1cc(Br)c(=O)n(Cc2ccco2)c1	-4.1	0	-20	2	6	-1.8%	8%
CC(C#N)Sc1ccc(S(=O)(=O)N2CCCC2)cn1 (stereo not given)	-5.2	5	-2	-1	-3	4.1%	.
C[C@@H]1CC2=C(C(=O)OC(C)(C)O2)[C@H](c2ccc(F)cc2)O1	.	0	.	1	.	-0.9%	.
Cc1ccc(Cl)cc1NC(=O)NCc1ccccn1	0.2	-2	-24	-3	21	1.5%	9%
Cn1c(=O)c2c(nc(SCC(=O)Nc3ccccc3N3CCCCC3)n2C)n(C)c1=O	0.4	5	4	12	?	?	15%
COc1ccc(CCNC(=O)C(=O)NCC2OCCN2S(=O)(=O)c2ccc(Br)cc2)cc1 (stereo not given)	0.0	11	-5	4	-1	-1.5%	11%
COc1cc(OC)cc(-c2c(C#Cc3ccsc3)c3cc(-c4ccc(SC)cc4)ccc3n2C)c1	0.4	9	-5	0	.	1.2%	.
Cc1ccc(S(=O)(=O)NCC(=O)OCC(=O)NCc2cccs2)cc1	-4.0	7	-9	0	-5	-2.1%	.
CCOC(=O)N1CCN(S(=O)(=O)c2c(C)nc3scc(C)n3c2=O)CC1	0.4	-3	-4	.	6	-0.5%	5%
CC1CCN(CC(=O)c2c[nH]c3ccccc23)CC1	0.1	-2	-18	-4	11	-0.6%	8%
O=S(=O)(c1ccc(Cl)cc1Br)N1CCCCC1	-0.1	14	-6	22	-2	-0.8%[38.3 µM]	16%
Cc1ccc(N2C(=O)C3ON(c4ccccc4)C(c4ccncc4)C3C2=O)cc1 (stereo not given)	-0.4	-5	?	-13	-2	-20%[38.3 µM]	-8%
CC(C)N(CCO)C(=O)CCc1nnc(CCCc2ccccc2)o1	-3.1	5	-5	1	-5	1.2%	11%
COc1ccc(OC)c(CN2CCN(C(=O)c3cccc(S(=O)(=O)Nc4ccc(F)cc4)c3)CC2)c1	0.9	-27	-16	4	.	5.0%	.
Cc1ccnc2nc(C(=O)Nc3ccc(S(=O)(=O)N4CCCC4)cc3)nn12	-2.4	2	-13	0	4	-0.6%	14%
COc1cccc(-c2sc3ccccc3c2-c2ccc(OCCN3CCCC3)cc2)c1	11	-21	-55	-3	.	-1.3%	.
CC1=C(C(=O)OCc2ccccc2)C(c2cccnc2)n2ncnc2N1 (stereo not given)	5.0	7	7	4	?	0.6%	18%

Sorted by value in CtBP-E1A blk (highest first): 6 from the list above.
smiles | D2 agonist | Six1-Eya2 blk | D2 PAM | CtBP-E1A blk | Sfp inh
O=S(=O)(c1ccc(Cl)cc1Br)N1CCCCC1 | -0.1 | 14 | -6 | 22 | 16%
COC(=O)c1cc(Br)c(=O)n(Cc2ccco2)c1 | -4.1 | 0 | -20 | 2 | 8%
CC(C)N(CCO)C(=O)CCc1nnc(CCCc2ccccc2)o1 | -3.1 | 5 | -5 | 1 | 11%
Cc1ccnc2nc(C(=O)Nc3ccc(S(=O)(=O)N4CCCC4)cc3)nn12 | -2.4 | 2 | -13 | 0 | 14%
C=CCSc1nc(N)c(C(=O)Nc2ccccc2OC)cc1C(=O)Nc1ccccc1 | -0.2 | 1 | 7 | -4 | 10%
Cn1cc(CN(CCO)Cc2cccs2)c(-c2cccc(Cl)c2)n1 | -3.1 | -4 | -15 | -11 | 16%

The list continues:
SMILES	D2 agonist	Six1-Eya2 blk	D2 PAM	CtBP-E1A blk	TRPV1 potentiator	PINK1 expr mod	Sfp inh
CC(C)C(NC(=O)C1CCCCC1)C(=O)Nc1ccc2c(c1)OCCO2 (stereo not given)	-4.1	-2	-28	3	-14	7.7%	-4%
COc1ccc2sc(N(CCCN(C)C)C(=O)c3ccc(C(=O)c4ccccc4)cc3)nc2c1	-4.6	-10	-13	?	3	-2.8%	.
CCCc1cc(=O)oc2cc(C)cc(OCc3nn[nH]n3)c12	-4.8	1	-2	0	-1	-0.6%	21%
Cc1cc(C)c(NS(=O)(=O)c2c(C(=O)N3CCOCC3)c(C)n(C)c2C)c(C)c1	7.3	1	-3	.	-3	0.0%	18%
COc1ccc(S(=O)(=O)NC2CCCCC2)cc1F	-1.1	2	-13	4	-7	1.2%	8%
O=C(COC(=O)c1ccccc1N1C(=O)C2C3CCC(C3)C2C1=O)c1ccccc1 (stereo not given)	-4.2	5	0	0	1	0.3%	0%
Cc1ccc(OCCC(=O)Nc2c(C)n(C)n(-c3ccccc3)c2=O)cc1	0.5	-4	-8	2	-14	0.7%	-11%
COc1ccccc1-n1c(SCC(=O)N(C)C)nnc1-c1ccco1	-3.1	-1	1	-3	.	-0.7%	.
CN(C)CCCN(C(=O)c1ccc(S(=O)(=O)N(C)Cc2ccccc2)cc1)c1nc2c(F)cccc2s1	-3.9	?	-14	-22	1	-1.6%	-24%
Cc1ccc(C(O)c2ncc(-c3ccc(F)cc3)[nH]2)c(C)c1 (stereo not given)	-3.0	-5	-9	-19	.	1.5%	.
S=c1[nH]nc(-c2cc(-c3ccccc3)n[nH]2)n1/N=C/c1ccc(Br)s1	-4.9	-9	-15	-14	.	-0.3%	25µM*
O=c1c2ccccc2ncn1Cc1ccco1	-2.8	3	-13	-14	-5	?	-9%
Cc1c(C)c2ccc(OCC(=O)Nc3ccc(CN4CCOCC4)cc3)cc2oc1=O	-1.4	-4	-13	2	14	13%	18%
CC1CCN(C(=O)C(C)Sc2nc(-c3ccccc3)cc(C(F)(F)F)n2)CC1 (stereo not given)	-5.1	14	-10	14	-12	1.0%&-1.7%	0%
COc1ccc(CCN2CC34C=CC(O3)C(C(=O)NCc3ccccc3Cl)C4C2=O)cc1OC (stereo not given)	-3.1	7	-6	-20	4	-3.8%	2%
CCOc1ccc(NC(=O)C(c2ccccn2)N(C(=O)CCl)c2ccc(OC)cc2)cc1 (stereo not given)	-1.0	-10	7	-5	11	6.4%	14µM*
CN(C)S(=O)(=O)c1ccc(NC(=O)CSc2nnc(-c3ccco3)o2)cc1	-0.4	1	-1	-2	.	-0.7%	.
COc1ccc(NC(C)=O)cc1S(=O)(=O)NC(C)c1ccc(-n2ccnc2)cc1 (stereo not given)	1.7	7	-3	.	-3	1.4%	.
COc1ccc(-c2sc3cc(OC)ccc3c2-c2ccc(OCCN3CCOCC3)cc2)cc1	?	?	.	-27	.	0.2%	.
CCOc1ccc(N=C(C)c2ccccc2O)cc1	0.6	-22	-21	0	4	0.6%	-9%
O=C(CN1CCCC1)N1c2ccccc2Sc2ccccc21	-0.2	-1	-15	-1	10	2.0%	0%
Cc1sc(N)nc1-c1c(C)n(C)c2ccccc12	-1.5	-11	-18	-8	6	-1.4%	-5%
CC1=NC(Nc2nc(C)c3ccccc3n2)=NC(C)(C)C1	-5.9	-2	-14	-1	5	-1.9%	3%
CCOC(=O)N(C)C[C@@H]1OCc2cnnn2CCCC(=O)N([C@H](C)CO)C[C@@H]1C	1.4	0	.	0	.	1.2%	.
O=S(=O)(NC(=NCCc1ccc(Cl)cc1)c1ccccc1Cl)c1cccs1	0.2	-3	-16	0	15	-1.3%	9%
Cc1c(OCC(=O)NC2CC(C)(C)NC(C)(C)C2)ccc2c3c(c(=O)oc12)CCC3	-4.8	3	-7	-5	-4	1.8%	10%
Nc1ccccc1SCc1c(Cl)cccc1Cl	9.7	12	-6	13	3	2.1%	22%
COc1ccc(S(=O)(=O)N2CCOCC2)cc1NC(=O)C1CC(=O)N(c2ccc3c(c2)OCCO3)C1 (stereo not given)	-3.5	-4	-9	1	.	1.1%	.
Cc1ccc(NC(=S)NCCc2c[nH]c3ccccc23)cc1	-0.5	-17	2	-7	-7	-0.2%	6%
Cn1cccc1C(=O)OCC(=O)NC(=O)c1ccc(Cl)cc1	-2.2	-9	-33	-1	.	-0.6%	.
O=[N+]([O-])c1ccc(N2CCN(CCO)CC2)cc1Sc1nc2ccccc2[nH]1	0.0	-16	-11	-1	-1	2.6%	4%
CC1(C)SC2c3ccccc3C(=O)N2[C@@H]1C(=O)NCCCN1CCOCC1 (stereo not given in full)	-1.6	-1	16	1	10	-2.3%	10%
Oc1ccccc1O	0.8	14	6	-19	2	0.6%	.
CN(C)c1cc[n+](CC(=O)Nc2c(Cl)cc(Cl)cc2Cl)cc1	-7.5	2	-3	10	5	0.4%	13%

Screening results from PubChem BioAssay.
